GIV-Gai inh = GIV-Galpha-i interaction inhibition. P08753. Galpha-i3/FITC-GIV peptide fluorescence polarization, 90 min; hits give low values; scaled: aluminum fluoride 0%, vehicle 100%. percent of control (FP), % (test concentration not listed). actives 0.42% (n = 210,000);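 active = replicate mean at 85% of control or lower, very high polarization wells dropped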;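 also: wells of about 15 µL received 100 nL stock; the first replicate is given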
Target sequence (P08753 whole entry, looked up): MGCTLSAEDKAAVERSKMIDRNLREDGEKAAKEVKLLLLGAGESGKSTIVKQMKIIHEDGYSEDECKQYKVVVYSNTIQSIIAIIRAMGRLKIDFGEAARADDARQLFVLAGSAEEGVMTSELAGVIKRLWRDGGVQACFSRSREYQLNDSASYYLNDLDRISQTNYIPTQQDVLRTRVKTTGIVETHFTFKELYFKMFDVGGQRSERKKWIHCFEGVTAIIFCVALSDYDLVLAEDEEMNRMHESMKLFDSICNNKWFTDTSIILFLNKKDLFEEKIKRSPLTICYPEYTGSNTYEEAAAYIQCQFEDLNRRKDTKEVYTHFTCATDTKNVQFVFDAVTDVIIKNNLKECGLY
HCMV UL50-53 inh = cytomegalovirus nuclear egress complex inhibition. HTRF UL50-UL53 interaction, normalized percent inhibition. inhibition, % (no concentration beside the values). actives 0.15% (n = 190,000). AID 1918969;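 active = both replicates at 50% or more, plus weaker picks with an unusually low signal ratio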;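 also: stock transfer was 100 nL into about 20 µL; 0% = negative control wells and 100% = wells with untagged competitor protein; inactives centre near -12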
Sa growth 42C = S. aureus growth inhibition | S. aureus RN4220 growth, OD600, 20 h, 42 °C; hits give low values | relative growth, % (concentration not given with the values) | actives 0.53% (n = 170,000) | AID 720641;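 active = growth at 42 °C up to 50% and 20 or more points under that at 30 °C, or under 10% at both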;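 also: 300 nL library stock went into each well; scaled to the means of positive and negative controls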
Sa growth 42C second temp = also measured in Sa growth 42C; calls as there; relative growth, %; measured here: growth at 30 °C;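 optical density after 20 h as mean of two plates; 100% = untreated growth and lower means inhibition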
An asterisk follows results filed as active; . = not tested or not shown; & = joins results of further samples. Random draw from the library; about 0.83% have a hit in one of these screens.

Screens by letter: A = GIV-Gai inh; B = HCMV UL50-53 inh; C = Sa growth 42C; D = Sa growth 42C second temp
1: Cc1ccc(C)c(NC(=O)Cn2cc(C(=O)c3cccs3)c3ccccc32)c1
  A: 95; B: 16; C: 117; D: 93
2: N#Cc1c(C(F)(F)F)cc(C2CC2)[nH]c1=O
  A: 107; B: -13; C: 109; D: 77
3: COc1cccc(CNC(=O)CCCn2nc(C)c3c(C)n(-c4ccc(C)cc4)nc3c2=O)c1OC
  A: 102; B: .; C: 103; D: 87
4: O=C(O)c1ccccc1NCc1ccncc1
  A: 101; B: -14; C: 120; D: 85
5: CCOc1cc(-c2nnc(SCC(=O)NCCCOC)nc2-c2ccc(OC)c(OCC)c2)ccc1OC
  A: 100; B: .; C: 90; D: 87
6: Cc1cc(C)c2nc(N3CCCC(C(=O)N4CCN(c5ccccn5)CC4)C3)sc2c1 (stereo unspecified)
  A: 100&100; B: -21&-16; C: 105; D: 79
7: COc1ccc(-c2nnc(SC(C)C(N)=O)o2)cc1 (stereo unspecified)
  A: .; B: -39; C: 88; D: 86
8: Cc1ccc(NC(=O)CCS(=O)(=O)c2ccc3c(c2)oc(=O)n3C)c(Br)c1
  A: 106; B: .; C: 97; D: 85
9: Cc1ccc(NC(=O)CSC2=NC(=O)C(Cc3ccccc3)C(=O)N2)cc1 (stereo unspecified)
  A: 103; B: 6; C: .; D: .
10: CC(C)n1ncc(C(N)=O)c1N
  A: 100; B: -15; C: 129; D: 92
11: O=C(Nc1ccc(F)c(Cl)c1)c1cc(S(=O)(=O)N2CCc3ccccc3C2)ccc1F
  A: 106; B: .; C: 113; D: 101
12: C=CCn1c(COc2ccccc2)nnc1SC(C)C(=O)Nc1nccs1 (stereo unspecified)
  A: 99; B: -20; C: 103; D: 86
13: Cc1ccc(C2=NN=C(NC(=O)CSc3ccccc3)SC2)cc1
  A: 103; B: .; C: 92; D: 84
14: Cc1ccc2c(c1)-c1c(ssc1=S)C(C)(C)N2C(=O)CSc1nc2ccccc2o1
  A: 103; B: -32; C: .; D: .
15: O=C(O)c1ccc(NC(=O)C2CCCCC2)cc1
  A: 102; B: -3; C: 98; D: 90
16: CCOC(=O)c1cnc(Nc2nc3ccccc3o2)nc1CSc1ccc(Cl)cc1
  A: 109; B: -36; C: 81; D: 91
17: CCOC(=O)c1cc2ccccc2[nH]1
  A: 102; B: 5; C: 118; D: 106
18: O=C(O)c1cc2c(s1)CCC2
  A: .; B: -6; C: 102; D: 93
19: O=C(Nc1ccc(-c2cnco2)cc1)C1CC1
  A: 97; B: -7; C: 87; D: 85
20: COc1ccccc1N=C(NO)c1ccccc1Cl
  A: 98; B: 0; C: 112; D: 93
21: CCOC(=O)c1ccc(NC(=O)CSc2nc3c(c(=O)[nH]2)CN(Cc2ccccc2)CC3)cc1
  A: 99; B: -11; C: 81; D: 71
22: CCc1ccc(-n2c(=O)c3sc4ccccc4c3n(CC(=O)N3CCCC3)c2=O)cc1
  A: 100; B: -59; C: 106; D: 87
23: CCN(CC)c1nc(-c2ccccc2Cl)c2cc(Br)ccc2n1
  A: 106; B: -38; C: 83; D: 88
24: CSc1ccc(NC(=O)NCCCN2CCC(Cc3ccccc3)CC2)cc1
  A: 101; B: .; C: 121; D: 88
25: Cc1cc(/C=c2\sc3nc4ccccc4n3c2=O)c(C)n1C(C)C
  A: 110; B: -1; C: 92; D: 80
26: Cc1ccc2c(CN(C)CCC#N)cc(=O)oc2c1
  A: 110; B: 6; C: 103; D: 90
27: COC(=O)C1=C(C)NC(C)=C(C(=O)OC)C1C(=O)OCC(=O)c1cc(C)n(-c2nccs2)c1C
  A: .; B: 4; C: 102; D: 98
28: N#Cc1ccsc1NC(=O)CCCSc1nc2ccccc2[nH]1
  A: .; B: -27; C: 82; D: 59
29: COc1ccc(N2CC(C(=O)Oc3coc(CSc4ncccn4)cc3=O)CC2=O)cc1 (stereo unspecified)
  A: 108; B: -33; C: 93; D: 86
30: COc1cc(C(CC(=O)O)CC(=O)Nc2ccc(C)cc2)cc(OC)c1OC (stereo unspecified)
  A: 104; B: 9; C: 108; D: 100
31: COc1ccccc1C(=O)Nc1ccc2nc(N3CCC(c4ccccc4C)C3)cc(C(=O)O)c2c1 (stereo unspecified)
  A: 113; B: -61; C: .; D: .
32: CCOC(=O)CC1(N)CCCCC1
  A: 100; B: 2; C: 104; D: 97
33: Cn1c(N2CCCC(C(=O)O)C2)nc2ccccc21 (stereo unspecified)
  A: 105; B: -10; C: .; D: .
34: CCCOc1cccc(C(=O)O)c1
  A: 97; B: -17; C: 86; D: 89
35: O=C(CCN1C(=O)c2ccccc2C1=O)Nc1ncn[nH]1
  A: .; B: -18; C: 108; D: 93
36: COc1ccc(C2C3=C(CC(C)(C)CC3=O)Nc3c2c(=O)[nH]c2nc(C)nn32)cc1 (stereo unspecified)
  A: 103; B: -8; C: 81; D: 97
37: COC(=O)c1onc(C(=O)c2ccccc2)c1C(=O)OC
  A: 103; B: .; C: 97; D: 84
38: CC(=C\C(=O)O)/C(=C/c1ccccc1)C(=O)O
  A: 104; B: -2; C: 101; D: 107
39: N#Cc1cccc(C#N)c1Oc1ccc(S(=O)(=O)N2CCCCC2)cc1
  A: 100; B: -15; C: 89; D: 86
40: Cn1nc(C(F)(F)F)cc1-c1ccc(C=C(C#N)C#N)s1
  A: 134; B: -33; C: 85; D: 83
41: COc1ccc(CC(=O)Nc2ccc(-c3nnc4n3CCCCC4)cc2)cc1
  A: 102; B: .; C: 91; D: 82
42: COc1cc2[nH]c(=O)n(CCCC(=O)NCc3ccc(Cl)cc3)c(=O)c2cc1OC
  A: 104; B: 6; C: 107; D: 91
43: Cn1c(C=Nc2ccc(Cl)cc2)nc2ccccc21
  A: 108; B: -38; C: 98; D: 98
44: Cc1cc2c(cc1S(=O)(=O)N1CCN(C(=O)CNC(=O)Cc3ccccc3)CC1)OCC(=O)N2
  A: 108; B: -2; C: .; D: .
45: CC(C)Sc1cc2c(cc1NC(=O)c1ccccc1)n(C)c(=O)n2C
  A: 107; B: 6; C: .; D: .
46: CCCCCCOc1ccc(C2C(=O)N(C3CCCCC3)CC(=O)N2C2CCCCC2)cc1 (stereo unspecified)
  A: 97; B: .; C: 123; D: 91
47: COc1nccn(-c2ccc(Br)c(C)c2)c1=O
  A: 105; B: -87; C: .; D: .
48: COc1cc(/C=C2/C(=N)N3C(=NC2=O)SN=C3S(=O)(=O)C(C)C)cc(Cl)c1OC(=O)c1ccco1
  A: 278; B: -35; C: 77; D: 89
49: CC(C)(C)NC(=O)Cn1c(S(=O)(=O)Cc2ccccc2)nc2ccccc21
  A: 104; B: -20; C: 106; D: 93
50: Cc1c(Cl)cccc1Nc1nn2c(=O)c3ccc(C(=O)NCCc4ccccc4)cc3nc2s1
  A: 107; B: .; C: 90; D: 103

Further results follow.
Screens by letter: A = GIV-Gai inh; B = HCMV UL50-53 inh; C = Sa growth 42C; D = Sa growth 42C second temp
51: Cc1cc2[nH]c(=O)c(=O)[nH]c2cc1S(=O)(=O)N1CCCc2ccccc21
  A: 102; B: .; C: 126; D: 84
52: COc1ccc(-c2nc3ccccc3c(=O)[nH]2)cc1
  A: .; B: 3; C: 90; D: 101
53: O=C(Cn1cnc2c(cnn2-c2ccccc2)c1=O)Nc1ccccc1
  A: 108; B: 0; C: 100; D: 85
54: CCOC(=O)Cc1ccc(NC(=O)Nc2nnc(N(CC(C)C)CC(C)C)s2)cc1
  A: 108; B: -1; C: .; D: .
55: CCN(Cc1ccccc1)c1ccc(NS(=O)(=O)c2ccc(C)cc2)cc1C(=O)O
  A: 92; B: -4; C: .; D: .
56: Cc1ccc(-c2nn(C(C)C(=O)Nc3c(C)cccc3C)c(=O)c3c2CCCC3)cc1S(N)(=O)=O (stereo unspecified)
  A: 110; B: -17; C: .; D: .
57: O=C(Nc1cc(F)ccc1F)n1ncc2ccccc21
  A: 106; B: -39; C: .; D: .
58: O=C(CC(c1ccccc1)c1ccccc1)N1CCN(Cc2ccc3c(c2)OCO3)CC1
  A: 104; B: -37; C: 110; D: 80
59: CCOc1ccccc1NC(=O)CSc1c2c(nc3ccc(Cl)cc13)CCCC2
  A: 107&100; B: -37&-12; C: 103; D: 95
60: CC(OC(=O)C1CC(=O)N(CCc2ccccc2)C1)C(=O)Nc1ncc(Cl)cc1Cl (stereo unspecified)
  A: .; B: -3; C: 89; D: 93
61: COC(=O)c1cc(OC)c(OC)c(OC)c1-n1c(C)cc(C(N)=O)c1C
  A: .; B: 7; C: 100; D: 100
62: COc1cc(C(=O)NC(C)c2nc3ccccc3[nH]2)cc(OC)c1OC (stereo unspecified)
  A: 101; B: 3; C: 105; D: 80
63: CCNS(=O)(=O)c1ccc(Br)c2ccccc12
  A: 105; B: -20; C: 105; D: 103
64: Cc1ccccc1OC1C(=O)N(CCc2ccc(F)cc2)C1c1ccc2c(c1)OCO2 (stereo unspecified)
  A: 106; B: .; C: 92; D: 90
65: COC(=O)c1cc(S(=O)(=O)NCCC(=O)Nc2ccc(OC)cc2)cn1C
  A: 107; B: -6; C: .; D: .
66: Cc1nc2scc(C)n2c1/C=N/NC(=O)CSc1cccc2cccnc12
  A: .; B: -26; C: 69; D: 92
67: Cc1ccccc1NC(=O)c1ccc2nc(C)c(C)nc2c1
  A: 108; B: -50; C: 106; D: 93
68: COc1cc(C)c(Cl)cc1S(=O)(=O)N1CCN(c2cc(N3CCCC3)nc(C)n2)CC1
  A: 102; B: 8; C: .; D: .
69: CNC(=O)COc1cccc2c1OC(C)(C)C2
  A: .; B: 18; C: 116; D: 94
70: O=C(CNc1ccccc1C(=O)NCc1ccco1)Nc1ccc2c(c1)OCCO2
  A: .; B: -4; C: 83; D: 97
71: O=C(COc1ncnc2ccccc12)NC1CCCCCC1
  A: .; B: -30; C: 115; D: 92
72: O=C(Cn1cc(C(=O)C(F)(F)F)c2ccccc21)N1CCCCCC1
  A: 101; B: -13; C: 103; D: 95
73: O=C(Cn1nnc2c(cnn2-c2ccccc2)c1=O)N(c1ccccc1)c1ccccc1
  A: 100; B: -6; C: 114; D: 86
74: CC(C)CNc1nc(=S)nc(N(C)C)[nH]1
  A: 112; B: 12; C: 121; D: 100
75: O=[N+]([O-])c1ccc(N2CCN(c3ncnc4ccccc34)CC2)cc1
  A: 103; B: -11; C: .; D: .
76: CCOC(=O)c1cnc2c(cnn2CC)c1NN=C(C)C
  A: 99&109; B: -40&-6&-9; C: 88; D: 82
77: Cc1sc2c(=O)n3c(nc2c1C(=O)NC1CCCCC1)CCCCC3
  A: 107; B: 20; C: 89; D: 85
78: CCCCCC(=O)N1c2ccccc2C(N(C(=O)c2cccc(OC)c2)c2ccccc2)CC1C (stereo unspecified)
  A: 104; B: -7; C: .; D: .
79: Cc1nn2c(=O)cc(COC(=O)c3ccccc3NC(=O)C(C)C)nc2s1
  A: 105; B: .; C: 89; D: 90
80: Cc1cnc(C(=O)OCC(=O)N2CCCc3ccccc32)cn1
  A: .; B: -3; C: 99; D: 84
81: C=CCOc1ccc(C(=O)n2cc(Br)cn2)cc1
  A: 100; B: -8; C: 122; D: 80
82: CCCNC(=O)Cn1cnc2sc(C(=O)NC(C)CC)c(C)c2c1=O (stereo unspecified)
  A: .; B: 0; C: 106; D: 98
83: OC(CNCc1ccc2c(c1)OCO2)CSc1cccs1 (stereo unspecified)
  A: 107; B: -15; C: 102; D: 86
84: CCn1c(COC(=O)Cn2c(=O)oc3ccccc32)nc2cc(S(=O)(=O)N(C)C)ccc21
  A: .; B: 1; C: 106; D: 99
85: O=c1oc(-c2ccco2)nc2cccc(F)c12
  A: 97; B: .; C: 94; D: 88
86: COc1cc(C(=O)NCCOc2ccc(C)c(C)c2)cc(OC)c1OC
  A: 104; B: -16; C: 82; D: 90
87: CCOc1ccc(N(C)C(=O)C2CCCN2S(=O)(=O)c2cc(C(=O)OC)n(C)c2)cc1 (stereo unspecified)
  A: 106; B: -10; C: .; D: .
88: CCOc1ccc2nc(Cl)c(CN(Cc3ccco3)C(C)=O)cc2c1
  A: 98; B: 14; C: 74; D: 89
89: CSc1cccc(NC(=O)CN(c2ccccc2)S(=O)(=O)N(C)C)c1
  A: 103; B: 18; C: 108; D: 95
90: CC(=O)N1c2ccc(S(=O)(=O)N3CCC(C(=O)Nc4cccc(Cl)c4C)CC3)cc2CC1C (stereo unspecified)
  A: 106&105; B: -15; C: 95; D: 77
91: CCOC(=O)C1CCN(C(=O)CSc2nnc(-c3ccc(C)cc3)n2N)CC1
  A: .; B: -13; C: 94; D: 90
92: O=C(Nc1ccc(Cl)cc1)c1ccc(CSc2ncccn2)cc1
  A: .; B: 0; C: 85; D: 93
93: Cc1ccc(NC(=O)CSCc2n[nH]c(=O)[nH]2)c(Br)c1
  A: 100; B: -15; C: 94; D: 93
94: COCCCNC(=O)c1ccc(-n2c(-c3ccccc3)cc3c2CCCCC3)cc1
  A: 98; B: 3; C: 94; D: 94
95: COc1ccc(C2c3c(-c4ccc(F)cc4)n[nH]c3C(=O)N2c2ccccc2)cc1OC (stereo unspecified)
  A: 111; B: 16; C: 83; D: 83

Screening results as filed in PubChem BioAssay.
